Compound activity as filed in PubChem BioAssay.
nsP2pro inh = inhibitors of chikungunya virus nsP2 protease; FRET peptide cleavage, nsP2pro, fluorescence 1 h; Q8JUX6; hit rate 1.1% among 31,000; Potency, µM (highest dose often 24.9 µM), inactives show top-dose activity change, negative = inhibition, actives largely listed as inhibitors; active means well fitted inhibition curve with a large enough effect; inconclusive means small, poorly fitted or top-dose-only effect; inactive means no such curve, though single readings can be large or run the other way; note: nearly all actives have a fitted effect of over 60% in size; a reference inhibitor and vehicle were the controls
The depositor's hits bear a star; i = inactive; ? = inconclusive; [ ] = another dose, or the depositor's remark. % is set by controls: 0 for no effect and ±100 for the full control effect; potency is the fitted concentration of half-maximal effect. Only part of the results is shown, so the mix of outcomes need not match the whole.

SMILES	nsP2pro inh
Cc1ccc(NCc2cccn2-c2nnc(N3CCC(C(=O)NCCC(C)C)CC3)s2)cc1	?
C=C1CC[C@@]2(O)[C@H]3Cc4ccc(O)c5c4[C@@]2(CCN3CC2CC2)[C@H]1O5	8%
C[C@]12CC[C@@H]3c4ccc(O)cc4CC[C@H]3[C@@H]1C[C@@H](O)[C@@H]2O	6%
COC(=O)NCC(=O)N1CC[C@@H]2[C@@H](CCC(=O)N2CCc2ccccc2)C1	-3%
C/C(=C\CCC(C)(C)O)CCO[C@@H]1O[C@H](CO[C@@H]2O[C@@H](C)[C@H](O)[C@@H](O)[C@H]2O)[C@@H](O)[C@H](O)[C@H]1O	57%[activator][10 µM]
NC(=O)C1CCN(c2ncc(-c3ccc4c(c3)OCO4)s2)CC1	-5%
CCO[C@H]1CN(C2CCN(CCc3ccccc3)CC2)C[C@@H]1O	-2%
CC1CCCC[C@H]2C(=O)C=C[C@H](O)[C@@H]2CC(=O)O1 (some centres not stated)	?
O=C(O)c1ccnc(-c2ccnc(NCCCN3CCCC3=O)n2)c1	3%
CC1(CCOC2OC(CO)C(O)C(O)C2O)CCC23OC2(C1)C(O)CC1C(C)(C(=O)O)CCCC13C (configuration not stated)	-15%[10 µM]
O=C(NCC1CCOCC1)C1COc2ccccc2O1 (configuration not stated)	i
CCOc1ccc2nc(N3CCN(C(=O)c4ccco4)CC3)sc2c1	-12%

3 entries already listed, sorted by heavy-atom count, low to high.
SMILES	nsP2pro inh
NC(=O)C1CCN(c2ncc(-c3ccc4c(c3)OCO4)s2)CC1	-5%
O=C(O)c1ccnc(-c2ccnc(NCCCN3CCCC3=O)n2)c1	3%
C/C(=C\CCC(C)(C)O)CCO[C@@H]1O[C@H](CO[C@@H]2O[C@@H](C)[C@H](O)[C@@H](O)[C@H]2O)[C@@H](O)[C@H](O)[C@H]1O	57%[activator][10 µM]

Going on with the list:
SMILES	nsP2pro inh
COc1cccc(C2c3c(ncn(-c4cccnc4)c3=N)Oc3ccc4ccccc4c32)c1 (configuration not stated)	i
CCO[C@H]1CN(C(=O)Cc2ccccc2OCc2ccccc2)C[C@@H]1O	4%
COCCNC(=O)C1CCc2sc(C(=O)N(C)C)cc2C1 (configuration not stated)	1%
COCCC1(C(=O)O)CCCN(Cc2cn[nH]c2C2CCCCC2)C1 (configuration not stated)	1%
CC(=O)c1cccc(-c2csc(N3CCC(C(N)=O)CC3)n2)c1	?
CC1CC=C2C1CC1(O)C(=O)CC2(C)C1(C)CO (configuration not stated)	71%[activator]
CC(C)CCNC(=O)[C@H]1CN(Cc2ccccc2)C[C@H]1C(=O)O	2%
O=S1(=O)N=C(Oc2ccccc2)c2ccccc21	-8%
O=C(NCCN1CCN(c2cccc3ccc(O)cc23)CC1)c1ccc(F)cc1	-4%
COc1ccc(-c2ccc3nc(-c4ccccc4)oc3c2)c(OC)c1OC	-6%
Cc1ccc(Cn2ccn(CC(=O)Nc3c(C)cc(C)cc3C)c(=O)c2=O)cc1	-22%
O=C(Cc1ccccc1)Nc1sc2c(c1C(=O)Nc1ccc(Br)cc1)CCC2	13%

Part of the list above in a different format:
SMILES,nsP2pro inh
COCCC1(C(=O)O)CCCN(Cc2cn[nH]c2C2CCCCC2)C1 (configuration not stated),1%
COc1ccc(-c2ccc3nc(-c4ccccc4)oc3c2)c(OC)c1OC,-6%
CC1CC=C2C1CC1(O)C(=O)CC2(C)C1(C)CO (configuration not stated),71%[activator]
O=S1(=O)N=C(Oc2ccccc2)c2ccccc21,-8%
CC(C)CCNC(=O)[C@H]1CN(Cc2ccccc2)C[C@H]1C(=O)O,2%
Cc1ccc(Cn2ccn(CC(=O)Nc3c(C)cc(C)cc3C)c(=O)c2=O)cc1,-22%
COCCNC(=O)C1CCc2sc(C(=O)N(C)C)cc2C1 (configuration not stated),1%

(cont.)
SMILES	nsP2pro inh
O=C1Nc2ccccc2-c2nc3ccccc3c(=O)n2-c2c(O)cccc21	14%
CC(C)CN1C2CCC1CN(C(=O)Nc1ccccc1F)C2	-7%
COc1ccc(-c2noc(CC(=O)Nc3ccc(C)c(F)c3)n2)cc1	-7%
Cc1noc2c(NCCN(C)C)cc(-c3ccccc3)nc12	i
CN(C)C(=O)NC1(c2ccccc2)CCN(CCC[C@]2(c3ccc(Cl)c(Cl)c3)CCCN(C(=O)c3ccccc3)C2)CC1	31%[activator]
Cc1ccc(CN2CCC(CNC(=O)c3cnn(-c4ccccc4Cl)c3C3CCN(C(=O)OC(C)(C)C)CC3)CC2)cc1	-24%
CCCCN1C(=O)C(O)(c2c[nH]c3ccccc23)c2cc(Br)ccc21 (configuration not stated)	-6%
Cc1ccc(-c2nnc(NC(=O)Nc3ccc4ccccc4c3)s2)cc1	-4%
CC#C[C@]1(O)CC[C@H]2[C@@H]3C[C@H](C)C4=CC(=O)CC[C@]4(C)[C@H]3CC[C@@]21C	-9%
Cc1ccc(-n2ncc3c(NC4CCCCCC4)ncnc32)cc1Cl	?
O=C(N1CCCCC1Cc1ccccc1)n1cc(-c2ccc(-c3ccccc3)cc2)nn1 (configuration not stated)	-9%
CCOC(=O)C(Cc1ccccc1)NC(=O)Cn1nnc(-c2ccc(C)cc2)n1 (configuration not stated)	-20%
O=C(O)[C@H]1OC(O)[C@H](O)[C@@H](O)[C@@H]1O (some centres not stated)	-2%
O=C([C@@H]1C[C@H](F)CN1C(=O)Cc1ccccc1F)N1CCCCC1	i
CC(=O)c1cccc(NC(=O)Cc2noc3ccccc23)c1	-13%
OC[C@H]1O[C@@H](OCCc2ccccc2)[C@H](O[C@@H]2OC[C@@H](O)[C@H](O)[C@H]2O)[C@@H](O)[C@@H]1O	100%[activator][10 µM]
CCc1ccc(N2CC(c3noc(C4(c5ccccc5)CC4)n3)CC2=O)cc1 (configuration not stated)	-3%
CC1CCC2C(C(=O)O)=COC(O[C@@H]3O[C@H](CO)[C@@H](O)[C@H](O)[C@H]3O)C12 (some centres not stated)	5%
COc1ccc(-c2noc(-c3ccccc3NC(=O)c3cc(OC)c(OC)c(OC)c3)n2)cc1	7%
CN1c2ncccc2CN(Cc2ccccc2)CC[C@H]1CO	-8%[39.2 µM]
COc1ccc(NC(=O)c2c(NC(=O)COc3ccccc3)sc3c2CCCCC3)cc1	-16%
CCOCCc1nn2c(=O)cc(COC(=O)c3ccccc3NC(=O)c3ccccc3F)nc2s1	-20%
CC(=O)Nc1ccc(S(=O)(=O)NC2(C(F)(F)F)NC(=O)N(c3ccccc3F)C2=O)cc1 (configuration not stated)	-12%
O=C1OCCN1C1CCN(Cc2ccccc2)CC1	-16%[39.2 µM]
Cc1ccc(-c2onc(C)c2C)cc1S(=O)(=O)NCc1cccs1	-10%
COC1CC(O[C@H]2CC[C@]3(C)C4CC[C@]5(C)C(C6=CC(=O)OC6)=CCC56OC46CC[C@@H]3C2)OC(C)C1O[C@@H]1O[C@H](CO[C@@H]2O[C@H](CO)[C@@H](O)[C@H](O)[C@H]2O)[C@@H](O)[C@H](O)[C@H]1O (some centres not stated)	-17%[5.1 µM]
CC(C)(C#Cc1ccc(-c2ccc(Cl)c3c(NS(C)(=O)=O)nn(CC(F)(F)F)c23)c([C@H](Cc2cc(F)cc(F)c2)NC(=O)Cn2nc(C(F)(F)F)c3c2C(F)(F)[C@@H]2C[C@H]32)n1)S(C)(=O)=O	-14%
COc1ccc(NS(=O)(=O)c2ccc3c(c2)CCC(=O)N3)cc1	i
O=C1CCN(C(=O)c2ccoc2)CCCC(c2nc(-c3cccnc3)no2)CCN1 (configuration not stated)	4%
CCC(C)NC(=O)c1ccc2c(c1)N(Cc1ccccc1F)C(=O)c1ccccc1S2=O (configuration not stated)	-12%
Cc1cc(/C=C2/C(=O)Nc3ccccc32)cc(C)c1O	i
CC(C(O)c1ccccc1)N(C)C/C=C/c1ccccc1 (configuration not stated)	-1%
COc1cccc(C(=O)Nc2ccc(-c3ccc(OC)nn3)cc2)c1	-2%
CS(=O)(=O)N1CCC(Oc2ccc(C(=O)NCCc3ccccn3)cc2Cl)CC1	i
C[C@H]1C[C@@H]2[C@H]([C@@H](O)C[C@@]3(C)[C@H]2CC[C@]3(O)C(=O)CO)[C@@]2(C)C=CC(=O)C=C12	15%
COCCCNC(=O)c1c(NC(=O)c2nc(S(C)(=O)=O)ncc2Cl)sc2c1CCCC2	7%
CNC(=O)c1ccc2cc(C3(O)CCn4cncc43)ccc2c1 (configuration not stated)	9%
CN(C)c1ccc(CN2CCC(N3CCCCCC3=O)CC2)cc1	-9%[39.2 µM]
COC(=O)[C@H](Cc1ccc(OC)cc1)NC(=O)[C@H]1CN(C(=O)c2ccc(N(C)C)cc2)CCN1C(=O)c1cccs1	i
O=C(N[C@H]1CCOC[C@H]1C1CCOCC1)c1cc2ncccn2n1	-5%
O=C(c1ccc(C2CCCNC2)cc1)N1CCCN(c2ccc(F)cc2)CC1 (configuration not stated)	i
CC(C)C(=O)N1CCc2[nH]nc(C(=O)NCCCc3ccccc3)c2C1	-1%
CCC(C(=O)N1CCN(c2ccc(OC)cc2)CC1)n1nc(C)n2c(cc3occc32)c1=O (configuration not stated)	-5%
COc1ccc(CNC(=O)C(=O)NCC(c2cccnc2)N2CCN(c3ccccc3F)CC2)cc1 (configuration not stated)	-9%
CC(=O)NC[C@H]1OC[C@@H](NCC(C)(C)C)[C@@H]1O	i
CC(=O)Nc1sc2c(c1-c1ccc(F)cc1)CCNC2	i
CCC1CCC(C(=O)NC(C(=O)Nc2cccc(OC)c2)C(C)C)CC1 (configuration not stated)	-25%
Cc1cccc(-c2noc(-c3ccc(NC4CCCC4)c([N+](=O)[O-])c3)n2)c1	-25%
C=CCN1CC[C@]23CCCC[C@H]2[C@H]1Cc1ccc(O)cc13	29%
CC1=C(C(=O)n2ccc3ccccc32)C(c2ccccc2Br)N=C(Nc2nc3ccccc3o2)N1 (configuration not stated)	5%
CC(C)(O)C1CCC2(C)C3C(O)C4C(C13)C42CO (configuration not stated)	?
CC[C@H](c1ccc(O)cc1)[C@@H](CC)c1ccc(O)cc1	14%
COc1ccc(NC(=O)c2ccc(-c3nc(CSc4ccc(C)cc4)c(C)o3)cc2)cc1Cl	-14%
CCN(CC)C(=O)Cn1c(=O)n(CCc2ccccc2)c(=O)c2ccccc21	-8%
CCOC(=O)c1c(C)[nH]c(CCC(=O)Nc2ccc(OC)c(OC)c2)c1C	-16%
NCCCC(=O)N1CCC2(CC1)CN([S+](=O)([O-])c1ccccc1)CCO2	-13%
O=C(NCCCN1CCN(c2ccccc2)CC1)c1cc2c(s1)-c1ccccc1OC2	-3%
Cc1c(Cl)cccc1Nc1nn2c(=O)c3ccc(C(=O)NCCC4=CCCCC4)cc3nc2s1	-2%
O=C(N[C@H](c1ccccn1)C1CC(O)C1)c1cc(=O)n(-c2ccccc2)[nH]1 (some centres not stated)	-1%
CC(=O)N1CCC(N2CCOC[C@H]2c2ncc(C(C)(C)C)[nH]2)CC1	3%[39.2 µM]
Carrying on.
SMILES	nsP2pro inh
CCc1ccc(C(=O)C(C)CN2CCCCC2)cc1 (configuration not stated)	-4%
COc1ccc(Nc2c3c(nc4ccc(NC(=O)/C=C/c5cccc(OC)c5OC)cc24)CCCC3)cc1OC	10%
Cc1ccc(Cn2c(SCC(=O)NCc3ccc(Cl)cc3)nc3ccsc3c2=O)cc1	-30%
COc1ccc(C2=Nn3c(nnc3-c3ccccc3OC)SC2)c(OC)c1	i
COc1ccc(NC(=O)c2nnn(Cc3nc(-c4cc(Br)ccc4OC)oc3C)c2C)cc1	-13%
CCOc1ccc(NC(=O)CSc2oc(-c3ccco3)nc2S(=O)(=O)c2ccc(Cl)cc2)cc1	-17%
OCC(CO)N[C@H]1C[C@](O)(CO)[C@@H](O)[C@H](O)[C@H]1O	-5%
CCCCNC(=O)CCC1N=C2c3ccccc3N=C(SCC(=O)NCCc3ccc(OC)c(OC)c3)N2C1=O (configuration not stated)	-26%
Cc1cccc(-n2cnc3cc(C(=O)N4CC(C)CC(C)C4)ccc32)c1 (configuration not stated)	-8%
O=C(O)CCSC[C@H]1O[C@@H]2O[C@H]3[C@H](O)[C@@H](O)[C@@H](O[C@H]4[C@H](O)[C@@H](O)[C@@H](O[C@H]5[C@H](O)[C@@H](O)[C@@H](O[C@H]6[C@H](O)[C@@H](O)[C@@H](O[C@H]7[C@H](O)[C@@H](O)[C@@H](O[C@H]8[C@H](O)[C@@H](O)[C@@H](O[C@H]9[C@H](O)[C@@H](O)[C@@H](O[C@H]1[C@H](O)[C@H]2O)O[C@@H]9CSCCC(=O)O)O[C@@H]8CSCCC(=O)O)O[C@@H]7CSCCC(=O)O)O[C@@H]6CSCCC(=O)O)O[C@@H]5CSCCC(=O)O)O[C@@H]4CSCCC(=O)O)O[C@@H]3CSCCC(=O)O	192%[activator]
O=C(c1cc2ccccc2oc1=O)N1CCN(c2ccc(Cl)cc2)CC1	-19%
COc1ccc2c(CNCc3ccco3)c(C(=O)O)n(Cc3ccc(F)cc3Cl)c2c1	-7%
CC1=C(C(=O)Nc2ccccc2)C(c2cccc(O)c2)n2nc(-c3ccccc3Cl)nc2N1 (configuration not stated)	-8%
NC(=O)N1CCC(CC(=O)N2CCC([C@H]3c4ncc(Br)cc4CCc4cc(Cl)cc(Br)c43)CC2)CC1	15%
CCN(C(=O)Cn1c(=O)n(Cc2ccc3c(c2)OCO3)c(=O)c2ccc(C(=O)NC3CCCCC3)cc21)c1cccc(C)c1	-18%
COc1ccccc1-n1cc(C(=O)N2CCC3(CCNC(=O)CC3)CC2)cn1	1%
Cc1cccc(-c2nc3scc(CCNS(=O)(=O)c4ccc5c(c4)OCCO5)n3n2)c1	-17%
S=P(c1ccccc1)(c1ccccc1)c1nc(CCCc2ccccc2)n2ccccc12	-8%
O=C(CCl)Nc1ccc(S(=O)(=O)c2ccc(NC(=O)CCl)cc2)cc1	2%

In the list so far, 3 have a tert-butyl group.
SMILES	nsP2pro inh
Cc1ccc(CN2CCC(CNC(=O)c3cnn(-c4ccccc4Cl)c3C3CCN(C(=O)OC(C)(C)C)CC3)CC2)cc1	-24%
CC(=O)NC[C@H]1OC[C@@H](NCC(C)(C)C)[C@@H]1O	i
CC(=O)N1CCC(N2CCOC[C@H]2c2ncc(C(C)(C)C)[nH]2)CC1	3%[39.2 µM]
